Screening data (PubChem)
KCNQ2 block – KCNQ2 channel blockers in CHO-K1 cells – cell-based, FluxOR thallium flux, B-score, primary screen (AID 2156). actives 1.1% (n = 310,000). O88943. 20 min; hits give low values; only compounds with negative scores are shown here; some inactives read as strong as hits. B-score at 10 µM;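 active = fluorescence ratio B-score at most minus 3 library SDs, with starting brightness B-score within 2 library SDs, cut at about -5.5 in these data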
Target sequence (O88943 whole entry, looked up): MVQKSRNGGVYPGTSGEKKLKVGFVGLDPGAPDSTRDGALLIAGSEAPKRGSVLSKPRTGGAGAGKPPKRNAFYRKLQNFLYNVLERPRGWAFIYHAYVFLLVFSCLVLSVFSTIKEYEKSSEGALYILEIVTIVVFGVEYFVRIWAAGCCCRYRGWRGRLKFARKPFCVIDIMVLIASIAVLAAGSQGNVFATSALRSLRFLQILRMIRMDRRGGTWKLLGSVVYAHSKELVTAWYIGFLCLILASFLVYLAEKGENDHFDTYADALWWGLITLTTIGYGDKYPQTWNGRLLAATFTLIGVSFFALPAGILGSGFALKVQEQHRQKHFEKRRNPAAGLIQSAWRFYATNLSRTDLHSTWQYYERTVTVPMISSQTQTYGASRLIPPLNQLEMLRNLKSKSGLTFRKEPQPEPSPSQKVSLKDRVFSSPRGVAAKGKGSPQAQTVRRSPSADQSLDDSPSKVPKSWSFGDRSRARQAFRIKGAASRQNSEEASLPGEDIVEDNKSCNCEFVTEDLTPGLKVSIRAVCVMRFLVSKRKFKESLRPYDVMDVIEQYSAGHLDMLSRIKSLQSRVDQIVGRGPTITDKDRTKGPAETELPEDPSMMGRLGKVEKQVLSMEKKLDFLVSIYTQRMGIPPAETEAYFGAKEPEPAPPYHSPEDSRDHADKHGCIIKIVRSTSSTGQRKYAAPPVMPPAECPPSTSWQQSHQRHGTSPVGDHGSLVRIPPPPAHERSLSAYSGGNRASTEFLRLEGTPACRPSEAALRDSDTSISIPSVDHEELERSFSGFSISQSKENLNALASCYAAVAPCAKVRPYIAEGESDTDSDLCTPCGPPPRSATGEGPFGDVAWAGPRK
KCNQ2 block baseline – also measured in KCNQ2 block; calls as there; B-score; measured here: initial fluorescence intensity artifact check;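 brightness before thallium and not channel activity; 0 = typical well and far values either way flag optical interference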
* hit, by the source's call; i = inactive.

Start of the listing, in advance, 15 compounds:
SMILES	KCNQ2 block	KCNQ2 block baseline
CC(=O)Nc1ccc(NC(=S)NC(=O)/C=C/c2ccccc2)cc1	i	0.47
N#Cc1c(NC(=O)CSc2nc3ccccc3c(=O)n2Cc2ccco2)sc2c1CCCC2	i	-0.59
COC(=O)c1ccccc1NC(=O)Cn1c(=O)n(CCC(=O)NC2CCN(Cc3ccccc3)CC2)c(=O)c2ccccc21	i	-0.58
O=C(Cn1ncc(Cl)c(Cl)c1=O)NC1CCS(=O)(=O)C1 (stereo not given)	i	0.05
O=C(CC(NC(=O)c1ccccc1Cl)c1ccccc1)Nc1ccc2c(c1)OCO2 (stereo not given)	i	-0.04
COc1ccc(C)cc1NC(=O)CN(C)S(=O)(=O)c1ccc2c(c1)CCCN2C(C)=O	i	-0.61
CC(=O)NC(=S)Nc1ccccc1N1CCCCC1	i	1.08
CCCOc1ccc(NC(=O)C(=O)NCCCn2ccnc2)cc1	i	2.16
O=C(Nc1ccc(Br)cc1Cl)Nn1cnnc1	i	0.01
Cc1cc(C(=O)OCn2nnc3ccccc3c2=O)c(C)n1-c1ccccc1	i	-3.48
COCCNC(=O)C(c1ccc(C)cc1)N(Cc1ccccc1)C(=O)CCC(=O)Nc1ccccn1 (stereo not given)	i	0.63
CC1(C)OC(=O)N(NCc2ccccc2)C1(C)O (stereo not given)	i	1.51
C/C(=N\NC(=O)c1ccc(Cl)c(Cl)c1)c1cccc(NC(=O)C(C)C)c1	i	1.64
COc1ccc(CCNC(=O)CCS(=O)(=O)c2ccc3nc(C)sc3c2)cc1OC	i	3.91
CS(=O)(=O)N(CC(=O)N1CCCCCC1)c1cccc(Cl)c1Cl	i	0.22

The whole of this part, from the first entry:
SMILES	KCNQ2 block	KCNQ2 block baseline
CC(=O)Nc1ccc(NC(=S)NC(=O)/C=C/c2ccccc2)cc1	i	0.47
N#Cc1c(NC(=O)CSc2nc3ccccc3c(=O)n2Cc2ccco2)sc2c1CCCC2	i	-0.59
COC(=O)c1ccccc1NC(=O)Cn1c(=O)n(CCC(=O)NC2CCN(Cc3ccccc3)CC2)c(=O)c2ccccc21	i	-0.58
O=C(Cn1ncc(Cl)c(Cl)c1=O)NC1CCS(=O)(=O)C1 (stereo not given)	i	0.05
O=C(CC(NC(=O)c1ccccc1Cl)c1ccccc1)Nc1ccc2c(c1)OCO2 (stereo not given)	i	-0.04
COc1ccc(C)cc1NC(=O)CN(C)S(=O)(=O)c1ccc2c(c1)CCCN2C(C)=O	i	-0.61
CC(=O)NC(=S)Nc1ccccc1N1CCCCC1	i	1.08
CCCOc1ccc(NC(=O)C(=O)NCCCn2ccnc2)cc1	i	2.16
O=C(Nc1ccc(Br)cc1Cl)Nn1cnnc1	i	0.01
Cc1cc(C(=O)OCn2nnc3ccccc3c2=O)c(C)n1-c1ccccc1	i	-3.48
COCCNC(=O)C(c1ccc(C)cc1)N(Cc1ccccc1)C(=O)CCC(=O)Nc1ccccn1 (stereo not given)	i	0.63
CC1(C)OC(=O)N(NCc2ccccc2)C1(C)O (stereo not given)	i	1.51
C/C(=N\NC(=O)c1ccc(Cl)c(Cl)c1)c1cccc(NC(=O)C(C)C)c1	i	1.64
COc1ccc(CCNC(=O)CCS(=O)(=O)c2ccc3nc(C)sc3c2)cc1OC	i	3.91
CS(=O)(=O)N(CC(=O)N1CCCCCC1)c1cccc(Cl)c1Cl	i	0.22
CCOCCCNC(=O)Cn1nc(-c2ccccc2)ccc1=O	i	1.75
C[C@H](NC(=O)N1CCn2c1nc1ccccc12)C(=O)NCc1ccco1	i	0.94
O=C(OCC(=O)N1N=C(c2ccc(Cl)cc2)CC1c1ccco1)c1ccccc1O (stereo not given)	i	-0.42
O=S(=O)(c1ccc(N2CCCC2)nc1)N1CCCC1	i	1
CC(C(=O)O)n1cc(Cl)cn1 (stereo not given)	i	2.17
Cc1ccc(C2C(=O)N(C3CCC(C)CC3)CC(=O)N2C2CCCC2)cc1 (stereo not given)	i	0.22
CCOC(=O)C1CCCN(CC(=O)Nc2c(C(=O)OC)[nH]c3ccc(Cl)cc23)C1 (stereo not given)	i	-1.16
CCOc1ccc(CNC(=O)c2ccco2)cc1	i	1.31
O=C(CSc1ccc(Br)cc1)NC1CCS(=O)(=O)C1 (stereo not given)	i	0.98
O=C(COC(=O)c1ccccc1C(=O)c1ccc(Cl)c([N+](=O)[O-])c1)NC1CC1	i	-0.03
Cc1ccc2[nH]c(=O)c(C(c3nnnn3CC3CCCO3)N3CCc4ccccc4C3)cc2c1 (stereo not given)	i	4.26
CC(C)(C)c1ccc(/C=C/C(=O)NCCCn2ccnc2)cc1	i	2.31
CCCc1n(CC(O)COCc2ccccc2)c2ccccc2[n+]1C (stereo not given)	i	0.1
O=c1[nH]c(-c2ccccc2)nnc1-c1ccccc1	i	0.15
COc1ccc(-c2cc(C#N)nc(N3CCN(C)CC3)n2)cc1	i	-0.22
CCOC(=O)c1ccc(NC(=O)C2CCN(C(=O)c3ccc(OC)c(OC)c3)CC2)cc1	i	-2.3
NC(=O)CSc1nnc(Cn2c(=O)sc3ccccc32)n1-c1ccccc1	i	1.34
COc1ccccc1N1CCN(C(=O)CSc2nnc(NC(=O)C3CCC3)s2)CC1	i	-1.58
Cc1onc(-c2c(Cl)cccc2Cl)c1C(=O)NCCc1ccncc1	i	2.6
O=[N+]([O-])c1ccc(/C=N/Nc2ccccn2)cc1	i	1.38
Cc1cc(C(F)(F)F)nc(-n2cc(-c3cccc(N)c3)nn2)n1	i	0.06
CC(=O)N1CCc2cc(C(=O)CN3CCCN(Cc4ccc(F)cc4)C3)ccc21	i	-1.24
Clc1ccc(C2Nc3cccc4cccc(c34)N2)cc1	i	-0.52
CCN(CC(=O)Nc1ccc2c(c1)OCCO2)C(=O)c1ccc(Cl)cc1Cl	i	0.71
COc1ccc(CN2CCC(C(=O)N3CCCC(C)C3)CC2)cc1OC (stereo not given)	i	-0.09
CCCN(CCC)S(=O)(=O)c1ccc(C(=O)N2CCOCC2)cc1	i	0.23
Cc1cccn2c(=O)c(/C=C3\SC(=S)NC3=O)c(NCCCN3CCOCC3)nc12	i	0.23
CCOc1ccc(/C=C2\SC(=S)N(CCC(=O)O)C2=O)cc1	i	-0.27
CCCc1cc(=O)oc2c(C)c(OCC(=O)NC3CCN(Cc4ccccc4)CC3)ccc12	i	-0.48
COCCCn1c(=O)c2ccccc2n(Cc2cccc(C)c2)c1=O	i	-0.65
COc1ccc(C2SCC(C(=O)O)N2C(C)=O)cc1OC (stereo not given)	i	-2.07
CC(C)C(OC(=O)c1ccccc1)c1nccc2ccccc12 (stereo not given)	i	0.39
CC(C)CN(C(=O)COC(=O)c1ccc2c(c1)OCCO2)c1c(N)n(Cc2ccccc2)c(=O)[nH]c1=O	i	-0.36
CCOC(=O)c1c(C)nc2c(c1-c1ccc(Cl)cc1)C(=O)CC(C)(C)C2	i	-1.36
S=C(NCCc1ccccc1)N1CCc2ccccc2C1	i	1.22
O=C(N/N=C/c1ccc(Cl)c([N+](=O)[O-])c1)c1cnccn1	i	-0.68
C/C=C/c1ccc(OCCOCCOc2cccc3cccnc23)c(OC)c1	i	1.01
COc1ccc(-n2c(COc3cccc(C)c3)n[nH]c2=S)cc1	i	-1.63
Cc1cccc(CN2C(=O)NC(c3ccccc3)(c3ccccc3)C2=O)c1	i	0.67
COc1ccccc1-c1csc(NC(=O)c2ccc(N3C(=O)CCC3=O)cc2)n1	i	1.75
C/C(CCC(C)C)=N\NS(=O)(=O)c1ccc(C)c([N+](=O)[O-])c1	i	0.35
O=C(Oc1ccc(Br)cc1)c1cccc(S(=O)(=O)N2CCOCC2)c1	i	1.26
O=C(Cn1c(=O)oc2ccc(Cl)cc21)Nc1ccon1	i	1.56
Cc1nc2ccccc2c2oc(C(=O)N3CCC(C)CC3)cc12	i	-0.68
COc1ccc(OC2C(=O)N(c3ccc(C)c(C)c3)C2c2ccc(OC)c(OC)c2)cc1 (stereo not given)	i	-0.33
(cont.)
SMILES	KCNQ2 block	KCNQ2 block baseline
Cc1ccc(C(=O)CCC(=O)N2CCN(c3ccc(F)cc3)CC2)cc1	i	0.45
CSc1ccc(CN(C)C(C)C(=O)NCc2ccccc2)cc1 (stereo not given)	i	0.54
O=C(CNCc1ccncc1)Nc1cc(S(=O)(=O)N2CCCCC2)ccc1Cl	i	-0.01
CCOC(=O)c1c(NC(C)=O)sc2c(OCC(O)CNC(C)(C)C)c(Br)ccc12 (stereo not given)	i	-0.17
COc1ccc(CNC(=O)CCSCc2cccc(Cl)c2)cc1	i	-0.44
CCC1CCCCN1C/C=C/c1ccccc1[N+](=O)[O-] (stereo not given)	i	0.44
O=C(Nc1ccc(Cc2ccncc2)cc1)c1ccc(Cl)c([N+](=O)[O-])c1	i	-0.22
O=C(CCN1Cc2ccccc2C1)c1ccc2c(c1)OCCO2	-5.9*	0.11*
Nc1sc2c(c1C(=O)NCCc1ccccc1)CCC2	i	-0.97
CC(NC(=O)Cc1ccc(F)cc1)c1ccccc1 (stereo not given)	i	0.56
N#Cc1c(N)nc(SCC(=O)NCc2ccc3c(c2)OCO3)c(C#N)c1-c1cccs1	i	1.11
Cc1ccc(C)c(N2CCN(C(=O)c3cn(C)c4ccc(S(=O)(=O)N(C)C)cc4c3=O)CC2)c1	i	0.55
Cc1cc(C)nc(/N=C2\NC(=O)CC(C(=O)O)N2c2ccc(C)c(C)c2)n1 (stereo not given)	i	0.86
COc1ccc(-c2nnc(SCC(=O)NC3CCCc4ccccc43)n2N)cc1 (stereo not given)	i	0.92
Cc1cc2ncn(/N=C/c3cc(Br)ccc3O)c2cc1C	i	0.01
COc1ccc(CNc2nc3ccccc3n2C(C)C)cc1	i	-0.13
CC(N=C1NC(C)(C)Cc2ccccc21)C(=O)O (stereo not given)	i	-0.4
COc1ccc(-c2cc(C(F)(F)F)nc(NCc3cccnc3)n2)cc1	i	-0.89
COc1ccccc1N1CCN(/N=C/C=C\c2ccccc2[N+](=O)[O-])CC1	i	0.59
Cc1ccc(S(=O)(=O)N(CC(=O)Nc2cccnc2)c2ccccc2C)cc1	i	-0.03
CCOC(=O)CCCn1ncn2c(cc3occc32)c1=O	i	-0.05
COc1ccc(C2(O)CC3CCC(C2)N3c2nc(C)cc(C)c2C#N)cc1 (stereo not given)	i	-1.58
CCNS(=O)(=O)c1ccc(C)c(-n2cnnn2)c1C	i	0.16
O=C(Nc1ccccc1)N1N=C(c2ccc(F)cc2)CC1c1ccc(F)cc1 (stereo not given)	-6.72*	-2.85*
CCCn1c(SCC(=O)c2ccc3c(c2)NC(=O)CO3)nc2ccccc21	i	-2.31
Cc1[nH]nc2c1C(C(C)C)C(C#N)=C(N)O2 (stereo not given)	i	-2.35
COc1ccc2c(C(=O)CCl)c[nH]c2c1	i	-0.68
COc1cc2ccccc2cc1C(=O)Nc1ccccc1N1CCCC1	i	3.56
CC1=C(C(=O)N(C)C)C(c2cccs2)NC(=O)N1 (stereo not given)	i	0.75
Cc1ccc(C(=O)N(c2ccccc2)C2CC(C)N(C(=O)c3ccco3)c3ccccc32)cc1 (stereo not given)	i	0.13
COc1ccc(S(=O)(=O)N2c3cc(Cl)ccc3Oc3nc4ccccc4nc32)cc1	i	-0.02
CC1=C(C(=O)Nc2ccc(C)cc2)C(c2ccc(C)o2)C2=C(CC(C)(C)CC2=O)N1 (stereo not given)	i	2.36
O=c1[nH]c2cc3c(cc2cc1CN(Cc1cccs1)Cc1nnnn1Cc1ccco1)OCCO3	i	-1.18
COc1ccc(NC(=O)CCn2c(=O)c3cccn3c3ccccc32)c(OC)c1	i	1.38
Clc1ccccc1CN(Cc1ccco1)Cc1nnnn1C1CCCC1	i	0.01
Cc1nc2scc(C)n2c(=O)c1S(=O)(=O)NCC1CCN(Cc2ccc(Cl)cc2)CC1	i	-1.31
COc1ccccc1Nc1ccc([N+](=O)[O-])cc1N	i	-0.36
O=C(O)C1CCCCC1C(=O)N1CCN(S(=O)(=O)c2ccc(F)cc2)CC1 (stereo not given)	i	0.22
O=C(O)C1C2CCC(C2)C1C(=O)N1CCCC1 (stereo not given)	i	0.18
O=C(O)C1C2C=CC(C2)C1C(=O)NCCCn1ccnc1 (stereo not given)	i	-0.23
CCc1cccc(NC(=O)CCCn2nc(C)c3c(C)n(-c4ccccc4)nc3c2=O)c1	i	0.04
O=C(CNC(=O)c1ccc(N2C(=O)c3ccccc3C2=O)cc1)OCC(=O)c1ccc(Cl)cc1	i	0.22
O=C(CNC(=O)c1ccc(Cl)cc1Cl)OCCOc1ccccc1	i	0.12
NS(=O)(=O)c1ccc(NC(=O)c2cc(-c3ccccc3O)n[nH]2)cc1	i	-0.42
COc1ccc(N(Cc2cc3ccccc3[nH]c2=O)S(=O)(=O)c2ccc(C)cc2)cc1	i	0.01

2 compounds drawn at random from the list so far, as already listed:
SMILES	KCNQ2 block	KCNQ2 block baseline
O=C(CNCc1ccncc1)Nc1cc(S(=O)(=O)N2CCCCC2)ccc1Cl	i	-0.01
COc1cc2ccccc2cc1C(=O)Nc1ccccc1N1CCCC1	i	3.56

Other records
SMILES	KCNQ2 block	KCNQ2 block baseline
Cc1ccc(Oc2ncccc2/C=N/OCc2ccc(Cl)c(Cl)c2)cc1	i	-1.67
O=C(c1ccccc1-c1nc(-c2ccccc2Cl)no1)N1CCOCC1	i	0.37
Cc1sc2nc(-c3cccnc3)[nH]c(=O)c2c1-c1ccccc1	i	0.76
O=C(CN1CCCCC1)Nc1scc2c1c(=O)oc1ccccc12	i	2.78
CCC(CC)C(=O)N1CC(=O)Nc2ccc(F)cc2C1c1ccccc1 (stereo not given)	i	1.44
COc1cccc(/C=C/C(=O)OCC(=O)NCc2ccco2)c1OC	i	0.34
O=C(c1ccc2c3c(cccc13)CC2)C1CCCN(Cc2ccncc2)C1 (stereo not given)	i	-0.5
CCN(CC)S(=O)(=O)c1cccc(C(=O)NC(C)C(c2cccs2)N2CCCC2)c1 (stereo not given)	i	0.92
Cc1ccc(Oc2cc(C)nc(-c3ccccc3O)n2)cc1	i	-0.76
COc1ccccc1NC(=O)CN1CCN(c2ccc(Cl)cc2)CC1	i	0.13
Cc1ccc(-c2nc3ccccc3o2)cc1NC(=O)c1ccc2c(c1)OCO2	i	-1.2
COc1cccc2sc3ccc(C#Cc4ccc(N)cc4)cc3c(=O)c12	i	-0.01

Not all compounds are listed; rates above refer to the full screens.
